Screening data deposited in PubChem by National Center for Advancing Translational Sciences (NCATS).
TSHR ag: qHTS Assay for Agonists of the Thyroid Stimulating Hormone Receptor; Thyrotropin receptor (Homo sapiens), P16473; HEK293-CNG-TSHR cells (CNG channel as cAMP sensor), membrane potential dye, cAMP; Potency, µM (titrated, usually from 57.1 µM), for inactives: at the highest dose activation, usual class: activators; hit rate 0.48% among 73,000; active = well fitted activation curve of enough size with the parental cells flat; inconclusive = any curve in the parental cells; inactive = parental cells flat and receptor cells flat or falling; note: potency is the fitted concentration of half-maximal effect; % of control where 0% means no effect; weak receptor curves with flat parental cells got no call and are not listed
Target sequence (P16473 whole entry, looked up): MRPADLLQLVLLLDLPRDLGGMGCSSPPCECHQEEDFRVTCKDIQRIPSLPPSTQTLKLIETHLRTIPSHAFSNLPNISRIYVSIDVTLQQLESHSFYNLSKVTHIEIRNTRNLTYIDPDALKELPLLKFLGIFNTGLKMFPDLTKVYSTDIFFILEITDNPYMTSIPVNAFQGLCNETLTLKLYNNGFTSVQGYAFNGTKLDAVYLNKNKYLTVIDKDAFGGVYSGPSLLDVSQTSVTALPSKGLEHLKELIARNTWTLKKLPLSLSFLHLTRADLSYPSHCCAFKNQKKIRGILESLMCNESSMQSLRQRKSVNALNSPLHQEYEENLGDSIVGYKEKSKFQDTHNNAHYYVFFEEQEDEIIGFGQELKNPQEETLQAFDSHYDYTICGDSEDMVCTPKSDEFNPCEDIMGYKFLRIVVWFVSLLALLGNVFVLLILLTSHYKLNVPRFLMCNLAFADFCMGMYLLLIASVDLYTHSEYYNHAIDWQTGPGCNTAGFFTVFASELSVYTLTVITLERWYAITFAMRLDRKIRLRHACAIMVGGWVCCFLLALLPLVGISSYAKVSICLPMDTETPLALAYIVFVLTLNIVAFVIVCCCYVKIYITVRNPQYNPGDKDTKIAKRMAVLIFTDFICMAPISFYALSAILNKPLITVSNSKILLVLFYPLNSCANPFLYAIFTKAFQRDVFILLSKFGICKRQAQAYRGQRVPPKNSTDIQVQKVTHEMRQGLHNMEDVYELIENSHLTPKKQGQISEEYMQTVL
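HEK 293 cells stably expressing TSHR and a cAMP-gated CNG channel; parental CNG-only cells as counterscreen. Cells preloaded 60 min with membrane potential dye plus 100 uM RO 20-1724, then compound 30 min; fluorescence read at 590 nm.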
A647 fluor: qHTS Assay for Spectroscopic Profiling in A647 Spectral Region. max dye-equivalent concentration, M. AID 592, 2007. 59,000 tested, under 10 active. Compound fluorescence, A647 channel (570/671 nm), Tris buffer; active means above 1 µM dye equivalent; inconclusive means 0.1 to 1 µM; inactive means 0.1 µM or less;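 note: values scaled relative to a standard on each plate; highest value over a series up to 38 µM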
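Tris 100 mM pH 8.0; cpd + A647 stds pin-transferred; 15 min RT; CCD imager, ex 570/em 671. Output = A647-equivalent conc. per cpd conc.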
Resorufin fluor: qHTS Assay for Spectroscopic Profiling in Resorufin Spectral Region; Compound fluorescence, resorufin region 547/598 nm, buffer; active compounds read high; max dye-equivalent concentration, M; hit rate 0.04% among 59,000; active = above 10 nM dye equivalent; inconclusive = 1 to 10 nM; inactive = 1 nM or less; a few of its hits are not listed in these tables; note: highest value over a series up to 38 µM
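Tris 100 mM pH 8.0; compound added, 15 min RT; CCD imager read, ex 547 nm/em 598 nm; signal normalized to resorufin standard curve (six concentrations per plate) as dye-equivalent concentration.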
A488 autofl: qHTS Assay for Spectroscopic Profiling in A488 Spectral Region; compound autofluorescence, A488 spectral region, dye equivalency; active compounds read high; hit rate 0.1% among 59,000; max dye equivalency, M; active = above 10 nM dye equivalent; inconclusive = 1 to 10 nM; inactive = 1 nM or less; about half of its hits are not listed in these tables;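 note: highest value over a series up to 38 µM; compound alone in buffer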
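Compound autofluorescence was read in 100 mM Tris pH 8.0 after 15 min at room temperature, ex 480 nm/em 540 nm. Intensities were converted to A488 dye-equivalent concentration using an on-plate six-point A488 standard curve.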
AID923: qHTS Assay for Allosteric/Competitive Inhibitors of Caspase-1: Spectroscopic Profiling in AFC Spectral Region; compound fluorescence, AFC spectral region (405/520 nm); almost no hit is shown here; Potency, µM (top dose mostly 57.5 µM), without a hit: top-dose fluorescence increase, actives largely listed as activators; hit rate 1.1% among 75,000; AID 923, 2007; active = well fitted activation curve with a large enough effect; inconclusive = small, poorly fitted or top-dose-only effect;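 note: potency is the fitted concentration of half-maximal effect; 0% is about no effect; scaled to a free AFC standard on each plate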
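Compound autofluorescence profiled at 405 nm ex/520 nm em during kinetic caspase 1 run (50 nM enzyme, 5 uM Ac-WEHD-AFC, HEPES pH 7.5, 10 mM DTT). Titration up to 57 uM; baseline from regression intercept, normalized to AFC standard curve.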
Active calls of the source: *; [ ] = dose if it differs, or a comment. This is a subset. The share of hits here may be higher or lower than overall.

CN(Cc1ccco1)c1cc(-c2ccc3c(c2)OCO3)ncn1 was read as TSHR ag inconclusive, A647 fluor 5.4e-09, Resorufin fluor inactive, A488 autofl inactive and AID923 1.7%.
`CCC1(C)Cc2ccccc2-c2nc(NCCO)n(-c3ccccc3)c(=O)c21` (configuration not stated) gave A647 fluor 2.5e-08, Resorufin fluor inactive and A488 autofl inactive.
For COc1ccc2nc(NC(=O)CSc3nnc4n3C(C)(C)Cc3ccccc3-4)sc2c1 the results were TSHR ag 19%, A647 fluor 1e-09, Resorufin fluor inactive, A488 autofl inactive and AID923 -2.1%.
For O[C@H](CNc1ccccn1)c1ccccc1 the results were TSHR ag -1%[11.4 µM], A647 fluor 1e-09, Resorufin fluor inactive, A488 autofl inactive and AID923 0.9%[11.5 µM].
Clc1ccc(OCc2nn3c(-c4ccco4)nnc3s2)c(Cl)c1 was read as TSHR ag inconclusive, A647 fluor 5.6e-09, Resorufin fluor inactive, A488 autofl inactive and AID923 0.2%.
`Cc1cccc(NS(=O)(=O)c2ccc(Cl)c(C(=O)O)c2)c1` gave TSHR ag 4% and AID923 -0.1%.
Screening O=C(CN(CCc1ccccc1)C(=O)CN1C(=O)COc2ccccc21)NCc1ccco1 returned TSHR ag 10%, A647 fluor 4.4e-09, Resorufin fluor inactive, A488 autofl inactive and AID923 -0.5%.
Screening CCN(CC)CCCN(Cc1cc2cc(OC)ccc2[nH]c1=O)C(=O)Nc1ccc(F)cc1 returned TSHR ag -5%, A647 fluor 3.2e-09, Resorufin fluor inactive, A488 autofl inactive and AID923 0.5%.
Screening O=C(CSc1nnc(-c2ccc3c(c2)OCCO3)o1)N1CCCC1 returned TSHR ag inconclusive, A647 fluor 2.5e-08, Resorufin fluor inactive, A488 autofl inactive and AID923 -0.4%.
For Cc1cnc(NC(=O)CSc2nnc(Cc3ccccc3)o2)s1 the results were TSHR ag -4%, A647 fluor 2e-08, Resorufin fluor inactive, A488 autofl inactive and AID923 -1.6%.
`COC(=O)CSc1nnc2c(C)cc3cc4c(cc3n12)OCCO4` gave TSHR ag inconclusive, A647 fluor 6.6e-09, Resorufin fluor inactive, A488 autofl inactive and AID923 0.2%.
For CC(CN1CCCCC1)OC(=O)c1ccc(Cl)cc1 (configuration not stated) the results were TSHR ag 20%, A647 fluor 6.1e-08, Resorufin fluor inactive, A488 autofl inactive and AID923 2.5%.
`CC(C)=CCC/C(C)=C/CO/N=C1/C[C@@H](O)[C@@H](O)[C@@H]2[C@H]3C(=O)N(c4ccc(F)cc4F)C(=O)[C@@H]3CC[C@H]12` gave TSHR ag 1%[11.4 µM] and AID923 -0.3%[11.5 µM].
COCCNC(=O)c1ccc(NS(C)(=O)=O)cc1 was read as TSHR ag -7%, A647 fluor 5.6e-09, Resorufin fluor inactive, A488 autofl inactive and AID923 -0.4%.
Cc1ccc(N2C(=O)c3ccc(C(=O)N4CCN(c5ccccc5F)CC4)cc3C2=O)cc1 was read as TSHR ag 23% and AID923 -0.7%.

Next section, overlapping the part above by three compounds.
`CC(C)=CCC/C(C)=C/CO/N=C1/C[C@@H](O)[C@@H](O)[C@@H]2[C@H]3C(=O)N(c4ccc(F)cc4F)C(=O)[C@@H]3CC[C@H]12` gave TSHR ag 1%[11.4 µM] and AID923 -0.3%[11.5 µM].
COCCNC(=O)c1ccc(NS(C)(=O)=O)cc1 was read as TSHR ag -7%, A647 fluor 5.6e-09, Resorufin fluor inactive, A488 autofl inactive and AID923 -0.4%.
Cc1ccc(N2C(=O)c3ccc(C(=O)N4CCN(c5ccccc5F)CC4)cc3C2=O)cc1 was read as TSHR ag 23% and AID923 -0.7%.
O=C(CCC1CCCCC1)N1CCN(Cc2ccc3c(c2)OCO3)CC1 was read as TSHR ag inconclusive, A647 fluor 1.2e-08, Resorufin fluor inactive, A488 autofl inactive and AID923 0.9%.
Screening CSc1cccc(NC(=O)c2ccco2)c1 returned TSHR ag 2% and AID923 -1.1%.
C/C(=C\CNc1ncnc2nc[nH]c12)CO was read as TSHR ag inconclusive, A647 fluor 1e-09, Resorufin fluor inactive, A488 autofl inactive and AID923 2.1%.
Screening O=C(CCCC(=O)N(CC(=O)NC1CCCC1)C1CCCC1)Nc1ccccn1 returned TSHR ag 5%, A647 fluor 1e-09, Resorufin fluor inactive, A488 autofl inactive and AID923 -1.1%.
`CCc1ccc(NC(=O)NCCN2CCc3ccccc3C2)cc1` gave TSHR ag 17%, A647 fluor 2e-08, Resorufin fluor inactive, A488 autofl inactive and AID923 0.5%.
Screening COc1cc(-c2cc(OC)c3c(C)oc(C)c3c(=O)c2)ccc1O returned TSHR ag 17%, A647 fluor 6e-08, Resorufin fluor inactive, A488 autofl inactive and AID923 1.1%.
Screening COc1ccc(NCc2nnc(SCC(=O)Nc3cc(C)cc(C)c3)o2)cc1 returned TSHR ag -12%, A647 fluor 2.1e-08, Resorufin fluor inactive, A488 autofl inactive and AID923 -1.2%.
Cc1nc2cnc(Oc3cccc(Cl)c3)nc2n(C[C@H]2CCCO2)c1=O was read as TSHR ag inconclusive, A647 fluor 1e-09, Resorufin fluor inactive, A488 autofl inactive and AID923 2.6%.
For CC(C)n1c(N2CCN(CC(=O)Nc3ccc4c(c3)OCCO4)CC2)nc2ccccc21 the results were TSHR ag 4%, A647 fluor 2.6e-08, Resorufin fluor inactive, A488 autofl inactive and AID923 0.7%.
Screening COc1nc(OC)nc(N2CCC(NC(=O)C(Cc3ccc(C(C)C)cc3)NC(C)=O)CC2)n1 (configuration not stated) returned TSHR ag 1%, A647 fluor 6.9e-08, Resorufin fluor inactive, A488 autofl inactive and AID923 0.6%.
`CCOC(=O)N1CCN(C(=O)C(C)N(c2ccc(Oc3ccccc3)cc2)S(C)(=O)=O)CC1` (configuration not stated) gave TSHR ag 11% and AID923 3.8%.
Screening O=C1[C@H]2[C@H]3[C@H](O)[C@H](O)C/C(=N/OCc4ccccc4)[C@@H]3CC[C@@H]2C(=O)N1C1CCCCC1 returned TSHR ag -7%[11.4 µM] and AID923 -1.2%[11.5 µM].
`[O-][N+]1=c2ccc(Nc3ccccc3)cc2=NC12CCCCC2` gave TSHR ag inconclusive, A647 fluor 3.5e-08, Resorufin fluor inactive, A488 autofl inactive and AID923 1.3%.
Screening COc1ccc(OC)c(NC(=O)C2C3CCC(C3=C(C)C)C2C(=O)O)c1 (configuration not stated) returned TSHR ag 2% and AID923 1.6%.
CC(C)Oc1ccc2c3c(c(=O)oc2c1)CCC3 was read as TSHR ag inconclusive and AID923 0.9%.
Cc1ccc(-n2nnnc2SCC(=O)c2cc(C)n(CC3CCCO3)c2C)cc1 (configuration not stated) was read as A647 fluor 1.1e-09, Resorufin fluor inactive, A488 autofl inactive and AID923 0.5%.
Screening Cc1ccc(C)c(Cc2c(C)nc3c(C(=O)N4CCOCC4)cnn3c2C)c1 returned TSHR ag 7%, A647 fluor 1e-09, Resorufin fluor inactive, A488 autofl inactive and AID923 -0.4%.
`CCn1c(=O)cc(SCC(=O)NCc2ccc3c(c2)OCO3)c2ccccc21` gave TSHR ag 1%, A647 fluor 3.4e-08, Resorufin fluor inactive, A488 autofl inactive and AID923 -0.4%.
O=C(c1ccccc1)n1c(=S)nc2ccccn21 was read as A647 fluor 2.2e-08, Resorufin fluor inactive and A488 autofl inactive.
For CC1Cc2ccccc2N1C(=O)c1cc2c(=O)n3ccccc3nc2n1C (configuration not stated) the results were TSHR ag 3%, A647 fluor 3.5e-09, Resorufin fluor inactive, A488 autofl inactive and AID923 2.6%.
For Cc1cc(C)n(C(CC(=O)O)C(=O)O)n1 (configuration not stated) the results were TSHR ag -3%, A647 fluor 2.1e-08, Resorufin fluor inactive, A488 autofl inactive and AID923 -0.8%.
For C=C(C)CSc1nnc(CCNC(=O)OC(C)(C)C)o1 the results were TSHR ag 12%, A647 fluor 1e-09, Resorufin fluor inactive, A488 autofl inactive and AID923 1.4%.
For COc1ccc(C(C)=O)cc1COC(=O)c1cnc(C)cn1 the results were TSHR ag -5%, A647 fluor 1e-09, Resorufin fluor inactive, A488 autofl inactive and AID923 -1.9%.
`Cc1nc(N2CCN(c3ccccc3)CC2)[nH]c(=O)c1Cc1ccccc1` gave TSHR ag 6%, A647 fluor 2.6e-08, Resorufin fluor inactive, A488 autofl inactive and AID923 0.0%.
CCOC(=O)c1cnc(-n2cc(C)cn2)nc1Nc1ccccc1OC was read as A647 fluor 6.4e-09, Resorufin fluor inactive, A488 autofl inactive and AID923 -0.1%.
`Cn1cccc1Cc1nnc(SCC(=O)NCCc2ccccc2)n1-c1ccc(F)cc1` gave TSHR ag 1% and AID923 -2.1%.
`Cc1nnc(N(Cc2ccccc2)C(=O)c2cnccn2)s1` gave TSHR ag -4%, A647 fluor 7.9e-09, Resorufin fluor inactive, A488 autofl inactive and AID923 0.4%.
COCCN(CCOC)c1nc(C)nc2c1nc(-c1ccccc1)n2CCCN(C)C was read as TSHR ag inconclusive and AID923 0.2%.
Cc1cc(C)n(-c2nnc(C)n2/N=C/c2ccco2)n1 was read as A647 fluor 6.7e-08, Resorufin fluor inactive and A488 autofl inactive.
For COc1ccc(C2C(C(=O)Nc3cc(C)on3)c3ccccc3C(=O)N2C)cc1OC (configuration not stated) the results were TSHR ag 3%, A647 fluor 1.8e-09, Resorufin fluor inactive, A488 autofl inactive and AID923 1.0%.
For COc1ccc(NC(=O)CCN2C(=O)C3CC=C(Cl)CC3C2=O)cc1 (configuration not stated) the results were TSHR ag -1% and AID923 0.7%.
For COC(=O)N1CCC2(CCN(C(=O)Nc3ccc(OC)cc3)CC2)CC1 the results were TSHR ag inconclusive, A647 fluor 2.1e-08, Resorufin fluor inactive, A488 autofl inactive and AID923 -0.5%.
`NC(=O)CCN(Cc1ccccc1)S(=O)(=O)c1ccccc1` gave TSHR ag -3%[11.4 µM] and AID923 2.8%.
For COc1ccccc1OCc1ccc(C(=O)N2CCN(C(=O)c3ccco3)CC2)cc1 the results were TSHR ag -5%, A647 fluor 1e-09, Resorufin fluor inactive, A488 autofl inactive and AID923 0.0%.
Cc1c(C(=O)NCCc2ccccc2)oc2ccc(S(=O)(=O)N3CCOCC3)cc12 was read as TSHR ag -2%[11.4 µM], A647 fluor 2.2e-08, Resorufin fluor inactive, A488 autofl inactive and AID923 -0.8%.
`N#CC(C(=O)NCCc1ccccc1)c1nc2ccccc2nc1N1CCOCC1` (configuration not stated) gave TSHR ag 9%, A647 fluor 4.6e-08, Resorufin fluor inactive, A488 autofl inactive and AID923 3.6%.
Cc1ccc2oc(=O)c3cnn(CC(=O)N4CCc5ccccc5C4)c3c2c1 was read as TSHR ag 12% and AID923 3.3%.
`O=C(c1sc2ccccc2c1Cl)N(Cc1ccco1)C1CCS(=O)(=O)C1` (configuration not stated) gave TSHR ag inconclusive, A647 fluor 1.5e-09, Resorufin fluor inactive, A488 autofl inactive and AID923 1.0%.
For CC(C)(C)C1=Nn2c(nnc2C2CCCCC2)SC1 the results were A647 fluor 3.5e-08, Resorufin fluor inactive and A488 autofl inactive.
O=C(Nc1c(F)cc(F)cc1Br)c1cc(-c2ccc(O)cc2)on1 was read as TSHR ag 8% and AID923 -3.8%.

Three entries out of the list, ordered by heavy-atom count, rising.
CC(C)Oc1ccc2c3c(c(=O)oc2c1)CCC3 was read as TSHR ag inconclusive and AID923 0.9%.
Cc1cc(C)n(-c2nnc(C)n2/N=C/c2ccco2)n1 was read as A647 fluor 6.7e-08, Resorufin fluor inactive and A488 autofl inactive.
`Cc1cccc(NS(=O)(=O)c2ccc(Cl)c(C(=O)O)c2)c1` gave TSHR ag 4% and AID923 -0.1%.
